MT1-MMP act inh: MT1-MMP (human) activation inhibition; HT1080 RFP-PRO-GFP cells, GFP/RFP ratio fluorescence, overnight; percent of plate control window, DMSO zero; P50281; AID 651647; GFP/RFP ratio change, % at 20 µM; 0.061% of 360,000 active;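 active = GFP/RFP ratio change of at least 30% with cell ATP level not reduced by more than half and red fluorescence within 50% of control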; also: strong numbers were not always called active
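Assay system: HT1080 RFP-PRO-GFP cells | Dosing: 20 µM single dose, 1% DMSO | Incubation: Cells overnight before dosing, compound overnight, 37 °C, 5% CO2 | Evaluation: GFP/RFP fluorescence ratio | Control set: DMSO-only wells and HT1080 RFP-L50D-GFP cell wells as references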
eIF4H inh: inhibitors of RNA binding by human eIF4H. Q15056. eIF4H fluorescence polarization binding assay. inhibition, % at 35 µM. 0.94% of 290,000 active. AID 2012;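 active = 50% or more with normal probe brightness, or confirmed in later tests; inconclusive = above 50% with abnormal brightness, or retests that disagree; inactive = below 50% or failed in later tests; about a fifth of its hits are not listed in these tables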;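 also: calls also rest on retests at 20 µM and on dose response follow-up; 0% = protein and probe with vehicle and 100% = probe without protein; strong numbers were not always called active; many hits fall short of the cut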
PABP FP inh: PABP-poly(A) binding inhibition; inhibition, % at 35 µM; AID 2014; 1% of 290,000 active; P11940; PABP-poly(A) RNA binding, fluorescence polarization;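 active = 50% or more with normal probe brightness, or confirmed in later tests; inconclusive = above 50% with abnormal brightness, or retests that disagree; inactive = below 50% or failed in later tests; about a fifth of its hits are not listed in these tables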;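 also: calls also rest on retests at 20 µM and on dose response follow-up; controls were probe without protein and protein plus probe with vehicle; some compounds called inactive have numbers as strong as hits; many hits fall short of the cut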
Rce1 inh: blocks yeast Ras-converting enzyme | calls only | AID 2563 | yeast membranes, quenched prenylated peptide cleavage fluorescence | 0.27% of 290,000 active;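 active = fall in fluorescence gain of 50% or more versus controls, with final raw signal at or below 3038400; inconclusive = same 50% fall but final raw signal above 3038400; inactive = fall in fluorescence gain under 50%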;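 also: plate controls were neutral control wells for no effect and wells lacking membranes for full effect; tested at 10 µM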
Target sequence (Q03530 whole entry, looked up): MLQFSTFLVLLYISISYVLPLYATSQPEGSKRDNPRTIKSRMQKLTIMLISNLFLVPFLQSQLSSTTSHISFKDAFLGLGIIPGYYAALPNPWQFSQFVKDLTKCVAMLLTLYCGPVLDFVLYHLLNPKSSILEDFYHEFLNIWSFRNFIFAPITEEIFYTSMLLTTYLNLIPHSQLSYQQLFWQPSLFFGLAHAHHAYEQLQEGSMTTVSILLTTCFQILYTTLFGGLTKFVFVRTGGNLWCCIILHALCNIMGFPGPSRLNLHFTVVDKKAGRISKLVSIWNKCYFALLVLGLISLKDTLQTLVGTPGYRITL
Env fusion inh: inhibitors of HIV Env-mediated cell fusion. HeLa-JRFL Env/CEM21 cell fusion, luciferase. inhibition, % at 12.3 µM. 1.1% of 360,000 active. AID 651610;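 active = mean replicate inhibition score of at least 50 and every replicate individually at or above 50; inconclusive = only one of the two criteria met; inactive = mean below 50 and not all replicates reaching 50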;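 also: 0% = plate neutral controls and 100% = maraviroc near 300 nM; one replicate is shown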
CSC inhib: cancer stem cell inhibition. cancer stem cell-like cells viability, luminescence. inhibition, % at 7.5 µM. 1.1% of 300,000 active. AID 2717;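 active = mean at 75% or more and at least half the replicates too; inconclusive = mean and replicates disagree; tested in HMLE shEcad cells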;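 also: 0% = median of negative and 100% = median of positive control wells; the first replicate is given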
UUG fidelity: modulators of start codon recognition fidelity in yeast; S. cerevisiae UUG-firefly luciferase reporter, luminescence/redox ratio; activity score, % at 18.7 µM; 0.13% of 350,000 active;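 active = replicate mean at a twofold rise or more, about +100% in these data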;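 also: firefly luciferase made from a UUG start codon reports start codon fidelity; reporter light over untreated wells divided by growth signal over untreated wells; some hits fall short of that in this replicate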
eIF4H inh retest: further read-out of eIF4H inh, marked with its call; inhibition, %; compound at 20 µM; confirmation average;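 mean of two retest wells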
PABP FP inh retest: further read-out of PABP FP inh, marked with its call; inhibition, %; compound at 20 µM; confirmation repeats;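 mean of two retest wells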
MT1-MMP act inh RFP: further read-out of MT1-MMP act inh, marked with its call; RFP signal change, %; measured here: RFP expression control read;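 0 = vehicle wells; hits needed this value within 50% of zero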
The depositor's hits bear a star; i = inactive; ? = inconclusive; nt = not tested or not shown; & = joins results of further samples. This is a subset. The share of hits here may be higher or lower than overall.

SMILES	MT1-MMP act inh	MT1-MMP act inh RFP	eIF4H inh	PABP FP inh	Rce1 inh	Env fusion inh	CSC inhib	UUG fidelity	others
CCOc1cc(C=C2C(=O)NC(=O)NC2=O)ccc1OCC(=O)N1CCOCC1	2.3	5.3	-10.4	11.8	i	32.2	-2.5	-25.7
COC(=O)C1=C(c2ccc(OC(F)(F)F)cc2)C[C@@H]2CC[C@H]1N2C(=O)NC1CCCCC1	-5.4	-9.5	nt	nt	nt	0.2	7.8	9.4
O=C1NCN(c2ccccc2)C12CCN(C(c1ccccc1OC(F)(F)F)c1nnnn1-c1ccc3c(c1)OCCO3)CC2 (configuration not stated)	-1.1	-8.4	nt	nt	nt	42.5	nt	-11.3
CN(CCCCC(=O)/C=N/O)Cc1ccccc1 (tested in a mixture with another compound)	-6.6	-5.0	-9.6	7.9	i	-69.5	2.5	-7.5
CCCCC1(CCCC)C(=O)NC(=Nc2cccc(C)c2)NC1=O	-16.7	-16.8	-4.9	-0.8	i	-74.6	32.4	-6.9
COc1ccc2[nH]c3c(c2c1)CCN[C@H]3C	-2.6	6.5	-4.1	7.6	i	11.9	-7.7	nt
CCN(CC)CCN=Cc1c(O)n(C2CCCCCC2)c(=O)[nH]c1=O	-1.4	2.6	-1.5	-0.4	i	nt	-8.4	-8.5
Cc1cc(C)cc(N2C(=O)NC(=O)/C(=C\c3cccn3-c3ccccc3)C2=O)c1	0.9	-3.4	?	-0.8	i	1.7	?	nt
CC(=NCCN(C)C)c1c(O)n(Cc2ccccc2)c(=O)[nH]c1=O	nt	nt	2.6	4.2	i	3.7	-1.7	nt
COc1ccc(-c2nn(CCC#N)cc2C(=O)NCc2ccccc2)cc1[N+](=O)[O-]	1.5	0.4	-3.8	4.0	i	-2.2	-17.0	-11.5
O=C1NCN(c2ccccc2)C12CCNCC2	-0.4	0.3	-4.4	-5.4	i	-33.3	-1.6	2.8
O=c1[nH]c(O)c(N=Nc2ccc([N+](=O)[O-])cc2)c(=O)[nH]1	17.9	4.8	-3.2	4.3	i	-8.0	-1.3	nt
CC(=NCCN1CCCCC1)c1c(O)n(Cc2ccccc2)c(=O)[nH]c1=O	-12.2	3.7	-0.3	-0.7	i	13.6	5.8	7.8
Cc1nn(Cc2ccccc2)c(Cl)c1C(=O)OCC(=O)NCC1CCCO1 (configuration not stated)	-1.6	1.6	19.6	-10.8	i	2.3	-15.0	nt
CC(C)OP(=O)(OC(C)C)C(O)c1cccnc1 (configuration not stated)	2.3	-1.9	-4.0	-2.6	i	15.3	nt	-12.9
CCCCc1nc2ccccc2c(=O)n1-c1ccccc1O	-1.7	1.2	-5.7	-9.8	i	nt	4.7	0.2
O=C(c1sc2ccccc2c1Cl)N1CCC2(CC1)OCCO2	1.4	0.0	-8.5	8.9	i	nt	-12.2	3.2
C/C(=N\NC(N)=O)c1c(O)n(C)c(=O)n(C)c1=O	1.7	5.7	5.3	-9.3	i	8.9	nt	nt
Cc1cc(/C=C2\C(=O)NC(=O)N(c3ccc(Br)cc3)C2=O)c(C)n1C	-12.5	1.8	77.1	4.5	i	6.4	-1.4	-16.1	eIF4H inh retest=-19.2;PABP FP inh retest=4.8
Cc1cccc(N=Nc2ccc(N(C)C)cc2)c1	7.1	5.9	-1.7	-11.4	i	-109.6	22.0	-17.4
COc1ccc2[nH]c3c(c2c1)CCNC3	2.0	7.1	nt	nt	nt	nt	-2.7	-7.8
C[C@]12CC[C@@H](O)C[C@@H]1CC[C@@H]1[C@@H]2CC[C@]2(C)[C@@H](O)CC[C@@H]12	5.6	-3.1	-5.9	3.9	i	-22.9	-8.3	-0.4
C/C=C(\C)C(=O)N[C@@H](c1ccccc1)[C@@H](O)C(=O)O[C@H]1C[C@@]2(O)[C@@H](OC(=O)c3ccccc3)C3[C@](C)(C(=O)[C@H](OC(C)=O)C(=C1C)C2(C)C)[C@H](O)C[C@H]1OC[C@@]31OC(C)=O (some centres not stated)	-6.2	-13.5	0.0	7.0	i	nt	-10.8	-2.3
CCC1(CC)C(=O)N(Cc2ccccc2)C(=O)N(Cc2ccccc2)C1=O	-5.0	-2.7	-7.1	-6.2	i	nt	-8.9	-9.0
Cc1ccc(NC(=O)CN2C(=O)CN=C(c3ccccc3)c3cc(Cl)ccc32)cc1	1.1	-6.4	-10.3	-2.0	i	-13.8	nt	-2.6
COC(=O)C1=C(c2cccc(C#N)c2)C[C@@H]2CC[C@H]1N2C(=O)N1CCC(C)CC1	6.7	2.0	nt	nt	nt	39.4	4.3	-4.5
COC(=O)C1=C(c2cccc(OC)c2OC)C[C@@H]2CC[C@H]1N2C(=O)NCc1ccco1	nt	nt	nt	nt	i	-24.9	-7.7	-14.4
C=Cn1ccnc1P(=S)(c1cc(N(CC)CC)ns1)c1nccn1C=C	0.1	-0.3	0.7	2.0	i	nt	-2.1	-16.6
CCCCn1c(O)c(/C=N/NC(=O)c2ccncc2)c(=O)[nH]c1=O	0.9	4.4	6.3	1.6	i	4.6	-27.8	-32.9
COc1ccc(C(=O)C2CCCN(Cc3ccsc3)C2)cc1OC (configuration not stated)	-0.2	3.1	-5.0	0.6	i	-49.7	33.0	nt

Quoted at random: 2 compounds from above
SMILES	MT1-MMP act inh	MT1-MMP act inh RFP	eIF4H inh	PABP FP inh	Rce1 inh	Env fusion inh	CSC inhib	UUG fidelity	others
Cc1ccc(NC(=O)CN2C(=O)CN=C(c3ccccc3)c3cc(Cl)ccc32)cc1	1.1	-6.4	-10.3	-2.0	i	-13.8	nt	-2.6
COc1ccc(C(=O)C2CCCN(Cc3ccsc3)C2)cc1OC (configuration not stated)	-0.2	3.1	-5.0	0.6	i	-49.7	33.0	nt

(more compounds)
SMILES	MT1-MMP act inh	MT1-MMP act inh RFP	eIF4H inh	PABP FP inh	Rce1 inh	Env fusion inh	CSC inhib	UUG fidelity	others
O=[N+]([O-])c1ccc(NCc2ccc(Cl)cc2)c2ccncc12	-2.0	-0.3	-1.1	-3.7	i	5.5	35.5	-10.5
CC(C)(C)n1cc(C(=O)c2ccc3ccccc3c2O)cn1	-0.8	1.6	-7.7	-6.3	i	-212.0	-6.1	nt
CC1=NN(c2ccccc2)C(=O)/C1=C/c1c(O)[nH]c(=O)[nH]c1=O	2.9	0.4	-6.2	-15.7	i	-4.8	-8.1	-14.0
CC1CCC(C(=O)NC(C(=O)N2CCC3(CC2)OCCO3)C(C)C)CC1 (configuration not stated)	0.0	3.0	2.9	-4.0	i	-8.3	-4.0	1.7
COc1ccc(-n2c(O)c(C=NCCN3CCN(C(C)=O)CC3)c(=O)[nH]c2=S)cc1	-1.6	0.6	-6.5	-4.9	i	-8.6	-11.4	0.8
CC(=O)Nc1ccccc1C(=O)OCC(=O)Nc1ncccn1	3.0	2.5	8.9	15.1	i	0.6	-3.2	-10.6
COC(=O)C1=C(c2cccc(OCc3ccccc3)c2)C[C@@H]2CC[C@H]1N2C(=O)NCc1ccc(OC)cc1	1.9	-10.2	nt	nt	nt	-112.4	14.1	-16.3
Fc1ccc(CNCCc2ccccc2)cc1	0.6	2.0	6.4	1.6	i	-6.1	4.7	nt
O=C1C2CCN(CC2)C1Cc1ccc(OCc2ccccc2)cc1 (configuration not stated)	-0.6	-3.7	3.8	-2.3	i	0.5	26.5	nt
C[C@H](CO)N1C[C@H](C)[C@@H](CN(C)C(=O)Oc2ccc3ccccc3c2)OCc2cnnn2CCCC1=O	-2.8	1.6	nt	nt	nt	19.2	nt	-9.2&13.6
Cc1ccc(OCC(=O)NCCN2CCN(C(=O)COc3ccc(C)cc3)CC2)cc1	3.3	4.2	7.4	-1.0	i	nt	-20.9	nt
CCCCn1c(O)c(/C=C/C=Nc2ccccc2)c(=O)[nH]c1=O	-37.9	5.4	?	0.6	i	3.0	-2.1	-22.8
CSc1nnc([C@@H](N)Cc2c[nH]c3ccccc23)o1	2.0	8.9	-2.8	5.6	i	6.6	-8.3	-14.8
CSCCC(c1nnnn1Cc1ccccc1)N1CCC(n2c(=O)[nH]c3ccccc32)CC1 (configuration not stated)	-14.9	-17.1	nt	nt	nt	45.7	nt	-7.0
COc1cc(O)c2c(c1)/C=C/C[C@H](O)[C@H](O)C(=O)CCC[C@H](C)OC2=O	-27.6	-50.9	nt	nt	nt	11.9	nt	-2.2
COc1cc(OC)c(OC)cc1CNC(C)C(O)c1ccccc1 (configuration not stated)	-2.5	-0.8	-6.6	-6.8	i	-67.8	-17.2	-9.6
c1ccc2c(c1)Sc1ccccc1N2CC1CN2CCC1CC2 (configuration not stated)	-2.7	1.5	4.9	-2.1	i	41.2	9.8	-4.8
CCOC(=O)CNC(=O)N1Cc2cc(N3CCCCC3)ccc2-n2nncc2C1	0.1	-1.1	nt	nt	nt	5.7	nt	-5.7
COC(=O)C1=C(c2ccccc2)C[C@@H]2CC[C@H]1N2C(=O)N1CCCCC1	0.1	0.1	nt	nt	i	-21.0	-7.4	-4.2
CCC(C)c1ccc(N2C(=O)NC(=O)/C(=C/c3cccn3CCOc3ccc(C)cc3)C2=O)cc1 (configuration not stated)	0.1	0.4	?	1.2	nt	-40.2	nt	nt
CC(O)(CS(=O)(=O)c1cccc(C(F)(F)F)c1)C(=O)Nc1cccc(C(F)(F)F)c1 (configuration not stated)	7.1	5.2	-5.0	1.6	i	20.9	nt	1.6
CC(=O)Nc1ccc(OC(=O)N(C)c2ccc(C)cc2)cc1	0.9	1.5	3.1	-5.7	i	-8.1	-11.8	4.3

A draw from above in order of length of the SMILES, high to low:
SMILES	MT1-MMP act inh	MT1-MMP act inh RFP	eIF4H inh	PABP FP inh	Rce1 inh	Env fusion inh	CSC inhib	UUG fidelity	others
COc1cc(O)c2c(c1)/C=C/C[C@H](O)[C@H](O)C(=O)CCC[C@H](C)OC2=O	-27.6	-50.9	nt	nt	nt	11.9	nt	-2.2
CCCCn1c(O)c(/C=C/C=Nc2ccccc2)c(=O)[nH]c1=O	-37.9	5.4	?	0.6	i	3.0	-2.1	-22.8
CC(=O)Nc1ccc(OC(=O)N(C)c2ccc(C)cc2)cc1	0.9	1.5	3.1	-5.7	i	-8.1	-11.8	4.3
CSc1nnc([C@@H](N)Cc2c[nH]c3ccccc23)o1	2.0	8.9	-2.8	5.6	i	6.6	-8.3	-14.8
c1ccc2c(c1)Sc1ccccc1N2CC1CN2CCC1CC2 (configuration not stated)	-2.7	1.5	4.9	-2.1	i	41.2	9.8	-4.8

High-throughput results (PubChem BioAssay)
